Screening data from PubChem.
Mtb H37Rv = Mycobacterium tuberculosis H37Rv growth inhibition, putative kinase inhibitor library, confirmatory dose response (AID 2842); M. tuberculosis H37Rv growth inhibition; higher % means a stronger effect; some inactives read as strong as hits; inhibition, % at 10 µg/mL, or IC90 in µg/mL where a hit was titrated; 24,000 tested, 5.2% active;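 active = confirmed in a dose series; inconclusive = mostly over 85% at the one dose but not retested; inactive = below 85% or not confirmed; about a fifth of its hits are not listed in these tables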;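 note: bacteria incubated one week before Alamar blue readout; 0% = bacteria only wells and 100% = bacteria with high antibiotic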
Starred values were filed as active, the others as inactive; ? = inconclusive. The list is partial; rates above refer to the full screens.

SMILES	Mtb H37Rv
Cn1c(=O)[nH]c(=O)c2c1nc(Nc1ccccc1)n2CCO	-6.5%
COC(=O)c1ccc(OC)c(CN2C(=O)N(c3ccc(C)c(F)c3)S(=O)(=O)c3ccccc32)c1	-11.1%
COc1ccc(-c2nnc3c4cc5c(cc4n(Cc4ccccc4)cc2-3)OCCO5)cc1	3.3%
CC(=O)c1cccc(NC(=O)c2cnc3sccn3c2=O)c1	-9.8%
CCOC(=O)c1nn(-c2ccc3c(c2)OCCO3)cc1O	-8.4%
CC1CN(S(=O)(=O)c2ccc(C(=O)NNc3nc4c(F)cc(F)cc4s3)cc2)CC(C)O1 (stereo unspecified)	6.1%
CC(=O)c1cccc(NC(=O)c2c[nH]c(=O)n(-c3ccc(F)cc3)c2=O)c1	5.5%
COC(=O)c1ccc(C(=O)Nc2cccc3c2C(=O)N(C)C3=O)cc1	-25.8%
NC(=O)c1nc(-c2cc(Br)ccc2O)nc2c1[nH]c(=O)n2-c1ccc(F)cc1	-11.5%
CCOc1ccccc1C(=O)Nc1nnc(-c2ccc(Cl)cc2Cl)s1	-3.4%
CN(C)S(=O)(=O)c1ccc(C(=O)Nc2sc3c(c2C#N)CCC3)cc1	0.7%
COC(=O)c1ccc(NC(=O)c2cn(-c3ccccc3)nc2-c2ccncc2)cc1	-18.8%
CN(Cc1ccccc1)S(=O)(=O)c1ccc(C(=O)Nc2nc3c(ccc4ccccc43)s2)cc1	54.3%
O=C1C2ON(c3ccc(Cl)cc3)C(c3cccs3)C2C(=O)N1c1ccc([N+](=O)[O-])cc1 (stereo unspecified)	0.4%
Nc1nc(SCC(=O)Nc2cccc(Cl)c2)[nH]c(=O)c1NC(=O)c1ccco1	-5.8%
CCCNC(=O)c1cnc2n(c1=O)CCS2	-4.0%
CCOc1ccc2c(c1)c(=O)c(S(=O)(=O)c1ccc(F)cc1)cn2Cc1ccccc1	-1.1%
CCS(=O)(=O)c1ccc(CC(=O)Nc2nc3ccc(F)cc3s2)cc1	3.8%
CCOC(=O)c1nn(-c2ccc(C)cc2)c(=O)c2c(NC(=O)c3ccccc3C(F)(F)F)scc12	-2.4%
O=C1NC(=Nc2ccc(Cl)cc2)SC1Cc1ccc(Cl)cc1 (stereo unspecified)	83.0%
O=C(COC(=O)c1ccc2c(c1)C(=O)N(CCc1ccccc1)C2=O)Nc1ccc(F)c(Cl)c1	4.3%
CCCOc1ccnc2c1c(=O)n(Cc1cccnc1)c(=O)n2C	8.1%
COc1ccc(NC(=O)c2oc3ccccc3c2NC(=O)c2cc(OC)cc(OC)c2)cc1	-6.2%
Cc1ccc2nc3c(cc(S(=O)(=O)c4ccc(Cl)cc4)c(=N)n3C3CCCC3)c(=O)n2c1	-4.3%

Rewritten with each value named: 4 of the compounds above.
mol: O=C1NC(=Nc2ccc(Cl)cc2)SC1Cc1ccc(Cl)cc1 (stereo unspecified)
  Mtb H37Rv = 83.0%
mol: O=C(COC(=O)c1ccc2c(c1)C(=O)N(CCc1ccccc1)C2=O)Nc1ccc(F)c(Cl)c1
  Mtb H37Rv = 4.3%
mol: CCCOc1ccnc2c1c(=O)n(Cc1cccnc1)c(=O)n2C
  Mtb H37Rv = 8.1%
mol: COc1ccc(NC(=O)c2oc3ccccc3c2NC(=O)c2cc(OC)cc(OC)c2)cc1
  Mtb H37Rv = -6.2%

Next part
SMILES	Mtb H37Rv
Cc1ccc2[nH]c(O)c(N=NC(=S)Nc3cccc(O)c3)c2c1	63.2%
C=CCSc1nc(N)c(NC(=O)c2ccc(OC)c(OC)c2)c(=O)[nH]1	-10.7%
O=C(NCc1cccnc1)C(=O)NCC(c1ccco1)N1CCN(c2ccccc2F)CC1 (stereo unspecified)	0.4%
CC1C(=O)N2CCCc3cc(NC(=O)c4c(F)cccc4F)cc1c32 (stereo unspecified)	-1.5%
O=C(Nc1cc2c3c(c1)CCC(=O)N3CCC2)c1ccc(F)cc1	2.1%
Cc1ccc(OCC(=O)N=Nc2c(O)[nH]c3c(Br)cc(Br)cc23)cc1	61.7%
COc1ccc(-n2c(=O)[nH]cc(C(=O)Nc3cccc(Cl)c3C)c2=O)cc1	50.5%
CCOc1cc(-c2nnc(NC(=O)c3cccs3)o2)cc(OCC)c1OCC	3.02µg/mL*
O=C(Nc1cccc(F)c1)c1ccc(S(=O)(=O)N2CCOCC2)cc1	4.4%
CCc1cc(-c2n[nH]c(C)c2-c2nc3ccccc3n2C)c(O)cc1O	22.4%
Cc1ccccc1NC(=O)CSc1nnc(-c2cccnc2)n1-n1cccc1	2.8%
Cc1cc2cc(CCNC(=S)Nc3ccc(Cl)c(Cl)c3)c(=O)[nH]c2cc1C	83.6%
COc1ccc(OC)c(NC(=O)C2=C(C)NC(=O)NC2c2ccccc2Cl)c1 (stereo unspecified)	0.5%
O=c1c(S(=O)(=O)c2ccc(F)cc2)cn(Cc2ccccc2Cl)c2ccc(F)cc12	-20.3%
O=C(CSc1ccc2nnc(-c3ccc(Cl)cc3)n2n1)N1CCN(c2ccccc2)CC1	-1.8%
NC(=O)c1c(NC(=O)c2c(F)cccc2F)sc2c1CCN(Cc1ccccc1)C2	66.2%
COCCN(CCOC)S(=O)(=O)c1ccc(C(=O)Nc2sc3c(c2C(N)=O)CCN(C(C)C)C3)cc1	-12.5%
COC(=O)C1=C(C)OC(N)=C(C#N)C1c1ccco1 (stereo unspecified)	-1.1%
COc1ccc(-c2nnc(Nc3nc4ccc(OC)cc4s3)o2)c(OC)c1	-0.6%
CCOC(=O)C(C)Sc1nc2c(c(=O)[nH]c(=O)n2C)n1Cc1ccc(Cl)cc1 (stereo unspecified)	4.0%
Clc1ccc(Cl)c2sc(N3CCCCC3)nc12	-0.9%
O=C(Nc1c(C(=O)Nc2ccc3c(c2)OCO3)oc2ccccc12)c1cccs1	-3.0%
CCOc1ccc(-c2nc(NC(=O)c3cc4c(ccc5ccccc54)oc3=O)sc2C)cc1	6.8%
O=C(CCSc1ccccc1)Nc1ccc(S(=O)(=O)Nc2nccs2)cc1	81.8%

Copied from the list.
C=CCSc1nc(N)c(NC(=O)c2ccc(OC)c(OC)c2)c(=O)[nH]1 in Mtb H37Rv has -10.7%
O=c1c(S(=O)(=O)c2ccc(F)cc2)cn(Cc2ccccc2Cl)c2ccc(F)cc12 in Mtb H37Rv has -20.3%

New compounds follow.
SMILES	Mtb H37Rv
Cc1ccc(C)c(NC(=O)CSc2nnc(C)c(=O)n2N)c1	-2.1%
C=CCn1c(SCC(=O)N2CCN(CCO)CC2)nc2sc3c(c2c1=O)CCC3	1.0%
Cc1nnc(SCC(=O)N2CCOCC2)s1	-1.1%
CCOC(=O)c1nn(-c2ccccc2)c(=O)c2c(NC(=O)C(CC)c3ccccc3)scc12 (stereo unspecified)	-1.8%
COc1ccc(C2CC(=O)n3nc(-c4ccc(Cl)c(Cl)c4)nc3S2)cc1OC (stereo unspecified)	1.9%
Cc1[nH]n(-c2ccccc2)c(=O)c1Sc1n[nH]c(=O)[nH]c1=O	-7.5%
Cc1nc2c(ccc3nc(NC(=O)c4ccc(Br)cc4)sc32)s1	-0.8%
Cc1ccc(C)c2[nH]c(=O)c(CCNC(=O)c3ccc(Cl)cc3Cl)cc12	-8.4%
O=C(CN1C(=O)c2ccccc2S1(=O)=O)Nc1cccnc1	-4.3%
Cc1cc(NCc2cccnc2)n2c(nc3ccccc32)c1C#N	8.2%
Cc1cc(C)c(C)c(Oc2ncnc(N)c2[N+](=O)[O-])c1	2.8%
O=C(Nc1cccc([N+](=O)[O-])c1)c1c[nH]c(=O)n(-c2ccc(F)cc2)c1=O	5.4%
Cc1ccc(/C=N/Nc2ncnc3nc[nH]c23)cc1	13.2%
CCN(CC)CCNC(=O)c1cc2c(=O)n3ccccc3nc2s1	15.5%
O=C(CCn1c(=O)oc2ccccc21)NCCCN1CCCC1=O	-18.9%
O=C1N=c2ccccc2=C1c1sc(=S)n(Nc2ccccc2)c1O	36.8%
CC(=O)C(C)Sc1nc2c(c(=O)[nH]c(=O)n2C)n1CCC(C)C (stereo unspecified)	-6.0%
O=C(NCCn1cc(SCC(=O)N2CCOCC2)c2ccccc21)c1ccc([N+](=O)[O-])cc1	-3.3%
N#Cc1ccc(C(=O)Nc2sc3c(c2-c2nc4ccccc4s2)CCCC3)cc1	-2.3%
CCOC(=O)c1c(C)[nH]c(C(=O)CSc2nnc3sc4ccccc4n23)c1C	7.8%
CCN(CC)c1ccc(C2NC(=O)NC(O)(C(F)(F)F)C2C(=O)c2cccnc2)cc1 (stereo unspecified)	-4.3%
Cn1c(=O)c2c(SCC(=O)Nc3nccs3)nc(-c3ccc([N+](=O)[O-])cc3)nc2n(C)c1=O	2.8%
O=C(NCc1ccc2[nH]c3c(c2c1)CCCC3)C(=O)c1c[nH]c2ccccc12	?
CCCCNC(=S)NCCc1cc2ccc(C)c(C)c2[nH]c1=O	-3.6%
O=C1/C(=C/C=C/c2ccco2)SC(=S)N1NS(=O)(=O)c1ccccc1	-8.4%
O=C(O)c1cccnc1SC1CC(=O)N(c2cccc(Br)c2)C1=O (stereo unspecified)	-9.1%
C/C(=N/NC(=O)c1cc(-c2ccc(C)s2)[nH]n1)c1ccc([N+](=O)[O-])cc1	8.0%
O=C(Nc1ccc(F)cc1)c1cnc2n(c1=O)CCS2	5.8%
O=C(CCN1C(=O)/C(=C\c2ccco2)SC1=S)Nc1ccc2c(c1)OCO2	-9.1%
COc1ccccc1-c1nnc(Nc2nc3ccc(F)cc3s2)o1	81.3%
O=C(Cn1cnc2c(cnn2-c2ccc(Cl)cc2)c1=O)Nc1ccccc1C(F)(F)F	-5.1%
O=C(c1ccccc1)N1CCN(c2ccc(NCC3CCCO3)nn2)CC1 (stereo unspecified)	2.3%
O=C(Nc1nnc(-c2ccccc2Cl)s1)c1cccc(Br)c1	-0.9%
CCOCC(=O)Nc1c(C(=O)Nc2ccc3c(c2)OCO3)oc2ccccc12	-6.6%
Cc1cc(O)c(C(c2ccncc2)N2CCN(c3ccc(F)cc3)CC2)c(=O)n1Cc1cccnc1 (stereo unspecified)	13.2%
CCN1CCN(c2nc3c(c(=O)[nH]c(=O)n3C)n2Cc2ccccc2C)CC1	0.7%

Reprinted at random: 6 records from the list.
SMILES	Mtb H37Rv
NC(=O)c1nc(-c2cc(Br)ccc2O)nc2c1[nH]c(=O)n2-c1ccc(F)cc1	-11.5%
O=C(Nc1c(C(=O)Nc2ccc3c(c2)OCO3)oc2ccccc12)c1cccs1	-3.0%
COc1ccc(C2CC(=O)n3nc(-c4ccc(Cl)c(Cl)c4)nc3S2)cc1OC (stereo unspecified)	1.9%
Clc1ccc(Cl)c2sc(N3CCCCC3)nc12	-0.9%
O=C(Nc1cc2c3c(c1)CCC(=O)N3CCC2)c1ccc(F)cc1	2.1%
NC(=O)c1c(NC(=O)c2c(F)cccc2F)sc2c1CCN(Cc1ccccc1)C2	66.2%

Continued.
SMILES	Mtb H37Rv
COc1cc(/C=N/Nc2nnc(C)c(=O)[nH]2)cc(OC)c1O	-11.5%
O=C(Cc1ccc([N+](=O)[O-])cc1)Oc1coc(CSc2ncccn2)cc1=O	-1.3%
O=C(NCc1ccccc1Cl)C(=O)c1c[nH]c2ccccc12	35.2%
CCOC(=O)C1=C(c2ccccc2)OC(N)=C(C#N)C1c1ccccc1C (stereo unspecified)	4.8%
Cc1cccc(C(=O)NC2CC(=O)N(c3ccccc3)C2)c1 (stereo unspecified)	10.9%
O=C(CSCc1ccccc1)Nc1nnc(C23CC4CC(CC(C4)C2)C3)s1	4.3%
CCC(CC)C(=O)Nc1nnc(-c2ccc(C)cc2)s1	13.3%
Cc1ccc(Nc2nc(NCCCO)nc3c2cnn3-c2ccccc2)cc1C	56.2%
Cc1ccc(-c2cnn3c(NC4CCCCC4)cc(C)nc23)cc1	50.5%
O=C(CSc1nc2c(oc3ccccc32)c(=O)[nH]1)Nc1ccccc1F	-9.9%
O=C1Nc2ccc(S(=O)(=O)Nc3ccc(Cl)cc3)c3cccc1c23	12.3%
O=C(Nc1nnc(-c2cc(Cl)ccc2Cl)o1)c1ccc(Cl)cc1	58.7%
CCC(Nc1nc(-c2ccccc2)nc2ccccc12)C(=O)O (stereo unspecified)	-7.2%
O=C1c2cccc3c(O)ccc(c23)C(=O)N1CCc1c[nH]c2ccccc12	2.0%
Cc1ccc(-n2nc3c(c2NC(=O)CCc2ccccc2)CSC3)c(C)c1	5.1%
CCOc1cc(/C=C2/SC(=S)N(NC(=O)c3ccccc3OC)C2=O)ccc1O	-4.3%
Cc1ccc(Nc2nc(Nc3cccc(F)c3)nc3nccnc23)cc1C	11.9%
Cc1ccccc1C(=O)Nc1sc2c(c1C#N)CCC2	5.1%
O=C(CCCCCN1C(=O)c2ccccc2C1=O)Nc1ccc(Cl)c(Cl)c1	-11.1%
CN(C(=O)CSc1nc2[nH]ncc2c(=O)[nH]1)c1ccccc1	1.2%
Cc1ccc(-n2c(SCC(=O)Nc3ccc(C)c(Cl)c3)nc3c(c2=O)SCC3)cc1	4.9%
COc1ccc(NC2CC(=O)N(c3ccc(OC(C)=O)cc3)C2=O)cc1 (stereo unspecified)	31.0%
Cc1ccc(NC(=O)CSc2nccn(-c3ccc(F)cc3)c2=O)cc1F	-13.6%
COc1cc(/C=C2/SC(=Nc3ccccc3Cl)NC2=O)ccc1O	41.0%
CC(=O)N1CCc2c(sc(NC(=O)c3cc(Cl)sc3Cl)c2C(N)=O)C1	4.5%
Cc1cn2c3c(=O)[nH]c(=O)n(C)c3nc2n1CCCN(C)Cc1ccccc1	2.62µg/mL*
COc1ccc(CCNC(=O)Cc2cc(=O)[nH]c(=O)[nH]2)cc1	-0.9%
Cc1ccc(N2C(=O)C3N=NN(CC(=O)Nc4cc(Cl)ccc4C)C3C2=O)cc1C (stereo unspecified)	-18.4%
C=CCSc1nc2c(c(=O)[nH]1)C(c1ccccc1)C1=C(CC(C)(C)CC1=O)N2 (stereo unspecified)	5.0%
Cc1ccc(C)c(NC(=O)CSc2nc3c(c(=O)n2-c2ccc(F)cc2)SCC3)c1	-0.5%
